# rRNA inh HTS: reduced GFP signal of wild-type E. coli, primary screen, bacterial rRNA inhibitor project, GFP/RFP fluorescence, OD600, single point | E. coli WT GFP vs humanized-ribosome RFP mutants, 24 h; stronger effect = lower value; DMSO median 0, no signal -100 | GFP signal change (wild-type ribosome), % (no concentration beside the values) | 350,000 compounds, 1.6% hits | AID 720706, 2013;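 active means significant combined selectivity score with lowered wild-type GFP, culture density cut under 30%, mutant RFP and density less affected; inactive means any of these conditions unmet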; further: one replicate is shown; some compounds called inactive have numbers as strong as hits
# FGF22 binding: binders of human FGF22 protein, primary screen, FGF22 synaptogenesis inhibitor project, biophysical, thermal shift, single point. Fibroblast growth factor 22 (Homo sapiens), Q9HCT0. recombinant FGF22 thermal shift, SYPRO orange fluorescence; percent of sucrose octasulfate shift, DMSO zero. calls only at 9.99 µM. 340,000 compounds, 1.5% hits;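 active means melting point raised past a set limit in the mean and every replicate; inconclusive means no clear call; three in four hits are not shown here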
# Target sequence (Q9HCT0 whole entry, looked up): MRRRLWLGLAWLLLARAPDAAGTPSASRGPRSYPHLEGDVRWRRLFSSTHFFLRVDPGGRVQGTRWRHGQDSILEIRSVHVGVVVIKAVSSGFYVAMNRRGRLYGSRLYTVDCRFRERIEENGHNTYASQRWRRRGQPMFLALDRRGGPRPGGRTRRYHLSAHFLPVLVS
# MLL AF4-AF9 inh: inhibitors of AF4 peptide binding to AF9, primary screen, biochemical, AlphaScreen, biotin-AF4 peptide, FLAG-AF9, single point | Protein AF-9 (Homo sapiens), P42568 | inhibition, % at 10 µM | 350,000 compounds, 0.47% hits;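 active means every replicate reaching a set inhibition limit, whatever the replicate mean, cut at about 25% in these data; inconclusive means mean inhibition reaches that limit but some replicates miss it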;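 further: 0% = plate neutral control median and 100% = total signal loss; the record names both 10 and 1 µM as test concentration; the first replicate is given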
# ALR inh: inhibitors of human ALR sulfhydryl oxidase, primary screen, biochemical, H2O2 detection, HRP-luminol luminescence, single point; purified ALR, DTT oxidation; inhibition, % (concentration not given with the values); 290,000 compounds, 3.8% hits; AID 485317, 2010;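 active means mean and each replicate at 75% or more; inconclusive means only one of the two met; inactive means neither met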;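 further: stock transfer was 7.5 nL into about 7.5 µL; 0% = neutral wells and 100% = wells with inactivated enzyme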
# Target sequence (P55789 whole entry, looked up): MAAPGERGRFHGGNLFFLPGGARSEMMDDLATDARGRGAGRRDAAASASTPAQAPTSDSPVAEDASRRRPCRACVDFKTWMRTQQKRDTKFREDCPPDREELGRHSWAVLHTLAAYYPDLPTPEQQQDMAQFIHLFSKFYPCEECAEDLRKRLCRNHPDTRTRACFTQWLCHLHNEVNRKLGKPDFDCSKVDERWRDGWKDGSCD
# Vif TR-FRET: inhibitors of Vif binding to APOBEC3G peptide, primary screen, biochemical, TR-FRET, GST-Vif 1-94, biotin-A3G peptide, dose response retest (AID 1117319); TR-FRET GST-Vif / biotin-A3G peptide binding; higher % means a stronger effect; test concentration not given here; strong numbers were not always called active; 260,000 compounds, 0.57% hits; Virion infectivity factor (Human immunodeficiency virus type 1 group M subtype B (isolate …; one-dose inhibition, %; IC50 in µM for titrated hits;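 active means above the screen mean plus three standard deviations and confirmed in dose response; inconclusive means results disagree or hit not tested in dose response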;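 further: Vif residues 1-94 fused to GST binding biotinylated APOBEC3G peptide 110-148; 0% = full assay without inhibitor and 100% = GST in place of GST-Vif; retest series ran down from 100 µM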
# E coli growth: E. coli growth inhibition, primary screen, OD600; Escherichia coli growth, 23 h; stronger effect = lower value; OD600 absorbance (concentration not given with the values); 330,000 compounds, 0.21% hits; AID 1053175, 2014;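 active means OD600 absorbance below the run mean of sample wells minus 3.6 SD, in any replicate, cut at about 0.56 in these data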;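 further: stock transfer was 300 nL into about 60 µL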
# HNF4A DNA FP: change in binding of human HNF4A to DNA, primary screen, biochemical, fluorescence polarization, FITC-DNA | activity change, % at 10 µM | 360,000 compounds, 0.3% hits | 1 h | Hepatocyte nuclear factor 4-alpha (Homo sapiens), P41235; in the data active means activity change above about 30%, passing the limit was not always enough;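 further: controls were the assay level and a saturating level of protein; the project sought stronger binding though the title names inhibitors; some compounds called inactive have numbers as strong as hits; positive values seem to mean higher polarization but the record does not say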
# Target sequence (P41235 whole entry, looked up): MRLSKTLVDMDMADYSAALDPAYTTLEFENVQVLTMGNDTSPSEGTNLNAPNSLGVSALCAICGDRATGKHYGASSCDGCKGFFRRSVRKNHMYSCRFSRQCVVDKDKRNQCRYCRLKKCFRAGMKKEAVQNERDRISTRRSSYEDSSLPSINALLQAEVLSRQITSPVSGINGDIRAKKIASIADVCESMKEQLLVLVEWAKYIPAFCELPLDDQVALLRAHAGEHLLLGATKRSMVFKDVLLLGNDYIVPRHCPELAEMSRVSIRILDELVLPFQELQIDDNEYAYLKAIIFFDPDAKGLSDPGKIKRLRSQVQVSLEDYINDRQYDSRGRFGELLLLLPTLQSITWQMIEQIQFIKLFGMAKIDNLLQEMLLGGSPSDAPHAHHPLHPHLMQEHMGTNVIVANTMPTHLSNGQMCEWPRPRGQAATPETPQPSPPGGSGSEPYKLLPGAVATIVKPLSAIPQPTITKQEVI
# rRNA inh HTS OD600: also measured in rRNA inh HTS; calls as there; OD600 change, %; measured here: OD600 growth;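 optical density of the mix in the first replicate; 0 = DMSO median and -100 = no signal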
# rRNA inh HTS RFP: further read-out of rRNA inh HTS, marked with its call; RFP signal change, %; measured here: RFP humanized mutant strains;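 first replicate; 0 = DMSO median and -100 = no signal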
# An asterisk follows results filed as active; i = inactive; ? = inconclusive; nt = no result given. An excerpt; rates above refer to the full screens.
SMILES,rRNA inh HTS,rRNA inh HTS OD600,rRNA inh HTS RFP,FGF22 binding,MLL AF4-AF9 inh,ALR inh,Vif TR-FRET,E coli growth,HNF4A DNA FP
CCS(=O)(=O)Nc1ccc(-c2cc(-c3ccccc3)c3cc(C)ccc3n2)cc1,nt,nt,nt,nt,nt,89*,nt,0.68,0.6
COCC(=O)N(C)C[C@H]1Oc2cc(C#Cc3ccccc3)ccc2S(=O)(=O)N([C@@H](C)CO)C[C@H]1C,4,9,-0.6,i,0.9,nt,nt,nt,nt
COc1ccc(C(c2c(N)[nH]c(=S)[nH]c2=O)c2c(N)[nH]c(=S)[nH]c2=O)cc1,13,11,0.3,i,-10,39,-3%,0.69,-1.9
O=C(C[C@H]1CC[C@H]2[C@@H](COC[C@@H](O)CN2C(=O)Nc2cc(Cl)cc(Cl)c2)O1)NCC1CC1,-28,-39,1.8,i,0.8,nt,nt,nt,nt
CN(C)c1ccc(C=NNC(=S)Nc2ccc(F)cc2)cc1,-4,0,4.7,i,-8.3,nt,1%,0.65,-4.3
Cc1ccc(NC(=O)c2ccc(NCCc3ccccc3)c([N+](=O)[O-])c2)cc1F,nt,nt,nt,nt,nt,16,nt,0.67,54*
CN(Cc1ccccc1)C(CNS(=O)(=O)c1ccccc1)c1ccccc1 (stereo not drawn),-16,-42,-2.2,i,1.8,nt,3%,nt,-0.1
O=C(COc1ccccc1)Nc1ccc2c(c1)Cc1cc(NC(=O)COc3ccccc3)ccc1-2,nt,nt,nt,nt,nt,0,-9%,nt,-2.1
CCN1CCCC1CNC(=O)C(=O)Nc1cccc(OC)c1 (stereo not drawn),13,18,-4.8,i,0.4,-4,nt,0.68,-1.0
Cc1ccc(F)c(N=Cc2c(O)c3ccccc3oc2=O)c1,-6,-16,-0.9,i,4.5,4,-24%,0.7,1.7
CCCn1c2c(c(O)c(C(=O)Nc3ncccc3O)c1=O)CCCC2,nt,nt,nt,nt,nt,-1,-3%,0.76,-0.7
Cc1noc(C)c1NC(=O)N(C)C[C@@H]1OCCCC[C@@H](C)Oc2ccc(NC(=O)c3ccncc3)cc2C(=O)N([C@H](C)CO)C[C@H]1C,1,-5,-2.3,i,-9.4,nt,nt,nt,nt
C=CCN1C(=O)c2ccc(C(=O)N3CCN(S(=O)(=O)c4ccccc4Br)CC3)cc2C1=O,18,15,0.8,i,1.6,-2,-6%,0.62,-0.3
N#Cc1ccc(OCC(=O)OCC(=O)c2ccccc2)cc1,nt,nt,nt,i,-0.5,-2,-3%,0.7,0.8
Cc1ccc2c(=O)cc(C(=O)NC3CCS(=O)(=O)C3)oc2c1 (stereo not drawn),3,16,-0.4,i,2.7,46,1%,0.7,0.1

# Laid out differently: 2 of the compounds above.
SMILES	rRNA inh HTS	rRNA inh HTS OD600	rRNA inh HTS RFP	FGF22 binding	MLL AF4-AF9 inh	ALR inh	Vif TR-FRET	E coli growth	HNF4A DNA FP
Cc1ccc2c(=O)cc(C(=O)NC3CCS(=O)(=O)C3)oc2c1 (stereo not drawn)	3	16	-0.4	i	2.7	46	1%	0.7	0.1
CCS(=O)(=O)Nc1ccc(-c2cc(-c3ccccc3)c3cc(C)ccc3n2)cc1	nt	nt	nt	nt	nt	89*	nt	0.68	0.6

# (further entries)
SMILES,rRNA inh HTS,rRNA inh HTS OD600,rRNA inh HTS RFP,FGF22 binding,MLL AF4-AF9 inh,ALR inh,Vif TR-FRET,E coli growth,HNF4A DNA FP
CSCC[C@H](NC(=O)c1ccco1)c1nnc2ccccn12,19,9,2.8,i,0.6,-2,nt,0.71,-0.4
Cc1ccc2cc(CCNC(=O)c3c(-c4ccccc4Cl)noc3C)c(=O)[nH]c2c1,3,11,2.8,i,-10,-4,-23%,0.74,0.4
Cc1cc(=O)oc2cc(OCc3ccc(C(=O)OCC(=O)N(C)C4CCS(=O)(=O)C4)cc3)ccc12 (stereo not drawn),2,5,-1.6,i,-4.3,7,-7%,0.72,2.9
O=C(c1cccnc1)N1C[C@@H]2[C@H](c3ccccc31)[C@H](CO)N2C(=O)C1CC1,2,2,1.6,i,-1.5,nt,nt,nt,nt
COc1ccc(OC)c(CCNC(=O)Cn2nc(C)c3c(C)n(-c4ccc(C)cc4)nc3c2=O)c1,-4,-3,-1.9,i,-0.1,-1,nt,0.64,-4.6
O=C1CCCC(O)=C1C1C2=C(CCCC2=O)Oc2ccccc21 (stereo not drawn),nt,nt,nt,nt,nt,28,21%,0.7,2.4
COCCn1nnnc1CN1C2CCCC1CC(NC(C)=O)C2 (stereo not drawn),nt,nt,nt,nt,nt,-2,0%,0.76,1.6
CCC(Sc1nc(C)cc(=O)[nH]1)C(=O)Nc1nnc(C)s1 (stereo not drawn),nt,nt,nt,nt,nt,-2,-1%,0.78,0.2
Cc1cc(OCC(=O)NCCN2CCOCC2)c2c(C)c(C)c(=O)oc2c1,-3,-1,-1.7,i,1.2,1,nt,0.66,-0.3
CC(NC(=S)NCCc1ccccc1)C(c1cccs1)N1CCN(C)CC1 (stereo not drawn),7,-6,3.0,i,8.3,5,nt,0.78,4.4
CN(C)S(=O)(=O)c1ccc(NC(=O)CN2CCCCCC2)cc1,3,0,-3.0,i,-1.2,nt,nt,0.65,-0.2
OCCCC1CCCN(Cc2cn[nH]c2-c2ccc(F)cc2F)C1 (stereo not drawn),16,5,0.1,nt,0.2,-3,-10%,0.67,0.2
CC(=O)n1cc(N(C(=O)CCl)c2ccc(C)cc2)c2ccccc21,-20,-16,-1.8,i,2.7,14,20%,0.66,-1.9
CCOC(=O)C1=CCN(S(=O)(=O)c2ccccc2F)C1c1ccc(C)cc1 (stereo not drawn),-27,-45,-8.0,i,-1.2,nt,nt,nt,3.5
CCOC(=O)c1sc(=S)n(Cc2ccccc2)c1N,nt,nt,nt,nt,nt,10,-6%,0.68,0.7

# Compound profiles, from the list above. Order of screens: rRNA inh HTS	rRNA inh HTS OD600	rRNA inh HTS RFP	FGF22 binding	MLL AF4-AF9 inh	ALR inh	Vif TR-FRET	E coli growth	HNF4A DNA FP
# O=C1CCCC(O)=C1C1C2=C(CCCC2=O)Oc2ccccc21 (stereo not drawn) across the screens: nt	nt	nt	nt	nt	28	21%	0.7	2.4
# Cc1cc(OCC(=O)NCCN2CCOCC2)c2c(C)c(C)c(=O)oc2c1 across the screens: -3	-1	-1.7	i	1.2	1	nt	0.66	-0.3

# (more compounds)
SMILES,rRNA inh HTS,rRNA inh HTS OD600,rRNA inh HTS RFP,FGF22 binding,MLL AF4-AF9 inh,ALR inh,Vif TR-FRET,E coli growth,HNF4A DNA FP
CCSc1nnc(NC(=O)CSc2nnc(CNC(=O)c3ccccc3F)o2)s1,nt,nt,nt,nt,nt,nt,7%,0.74,-5.3
Cc1cc(NC(=O)CSc2nc3ccccc3c(=O)n2Cc2ccccc2)no1,nt,nt,nt,nt,nt,-18,4%,0.74,3.5
COC(=O)c1ccc(C)c(NS(=O)(=O)c2ccc(C)c([N+](=O)[O-])c2)c1,nt,nt,nt,nt,nt,-5,6%,0.76,0.2
O=C(N/N=C/c1ccco1)c1ccc(Br)o1,nt,nt,nt,nt,nt,-2,4%,nt,7.0
COc1ccc(C)cc1S(=O)(=O)N1CCN(C(=O)c2ncoc2-c2cccc(F)c2)CC1,-4,-3,4.2,i,-3.4,-22,nt,0.64,-0.9
Cc1nn(C)c(C)c1NC(=O)CC12CC3CC(CC(C3)C1)C2,5,5,3.2,i,5.5,0,?,0.67,3.1
O=c1[nH]c(-c2ccccn2)nc(C(F)(F)F)c1Br,-56,-77,-26,i,-18,-3,nt,0.54,-0.5
O=C(Nc1ccc(F)cc1)N1CC(=O)N2[C@@H](CO)[C@@H](c3ccc(-c4cccc(F)c4)cc3)[C@@H]2C1,-41,-68,-9.3,i,-11,nt,nt,nt,nt
Cc1ccc(C2=NN(C(=O)CSc3nc4ncc(Cl)cc4[nH]3)C(c3ccco3)C2)cc1 (stereo not drawn),4,-2,-1.5,i,0.2,?,8%,0.69,-2.2
COc1ccc(NS(=O)(=O)c2cc(NC(=O)c3ccco3)ccc2N2CCCCC2)cc1,nt,nt,nt,nt,nt,3,-2%,0.71,1.4
CSc1cccc(NC(=O)COc2ccccc2C)c1,-37,-31,1.4,nt,0.5,-4,-8%,0.62,2.5
CN1Cc2c(N3CCOCC3)nc(SCc3ccccc3)c(C#N)c2CC1(C)C,nt,nt,nt,nt,nt,-9,9%,0.7,-3.6
CCOc1ccccc1N=c1oc2cc(O)ccc2cc1C(=O)NCC1CCCO1 (stereo not drawn),-24,-4,-7.9,i,5.4,98*,?,0.74,2.3
CC(C)CC(NC(=O)COc1ccccc1)C(=O)O (stereo not drawn),nt,nt,nt,nt,nt,-7,2%,0.66,3.5
O=C(C[C@H]1C[C@H]2c3cc(NS(=O)(=O)c4ccccc4)ccc3O[C@H]2[C@@H](CO)O1)N1CCOCC1,1,-6,0.0,i,1.8,nt,nt,nt,nt
CSCCC(NS(=O)(=O)c1cccc(C(F)(F)F)c1)C(=O)N1CCN(C(=O)c2ccco2)CC1 (stereo not drawn),1,10,-2.4,i,?,nt,nt,0.68,-1.2
COc1ccc(/C=C2/CCCc3ccccc3C2=O)cc1,-37,-63,-11,i,8.5,nt,-2%,nt,-1.1
CCn1ccnc1CN1CCCCC1C(=O)Nc1ccc(Oc2cccnc2)cc1 (stereo not drawn),6,4,0.8,i,5.4,5,nt,0.65,0.3
CO[C@H]1CC[C@H]2CCOc3c(C#N)cccc3C(=O)N(C)C[C@@H](OC)[C@@H](C)C(=O)N(C)C[C@H]1O2,-1,-1,-2.7,i,0.0,nt,nt,nt,nt
COc1ccc(NC(=S)N(CCCN2CCCC(C)C2)Cc2cccs2)cc1 (stereo not drawn),6,8,1.9,i,4.4,-13,-12%,0.69,5.3
COc1cccc(NC(=O)CN(C)C(=O)CCCNC(=O)c2ccc(Cl)cc2)c1,-4,-4,2.6,i,-2.9,nt,-12%,0.64,-1.9
N=C1S/C(=C\c2ccco2)C(=O)N1c1ccc2c(c1)OCO2,-43*,-7.2*,8.5*,i,-2.1,-14,9.3µM*,0.7,4.4
CN1CCN(c2ccccc2NC(=O)c2ccc(-c3ccc(Cl)c(Cl)c3)o2)CC1,-54,-73,-15,i,1.6,nt,nt,0.65,-3.1
O=C(NNC(=S)NC(=O)c1cn(-c2ccccc2)nc1-c1ccccc1)c1ccncc1,-48,-74,-12,nt,12,16,-15%,0.64,1.4
O=C(Nc1ccccc1)c1nnsc1S(=O)(=O)c1ccc(Cl)cc1,nt,nt,nt,nt,nt,10,-3%,0.6,-2.6
CCCNS(=O)(=O)c1ccc(OCC(=O)NCCCOC)cc1,nt,nt,nt,nt,nt,-1,-6%,0.68,-3.5
C[C@H]1CN([C@@H](C)CO)S(=O)(=O)c2ccc(C#Cc3ccc(F)cc3)cc2O[C@H]1CN(C)C(=O)NC1CCCC1,-1,-5,5.0,i,-3.2,nt,nt,nt,nt
Cc1cc(-c2nnc(SCC(=O)NC3CCCC3)o2)no1,nt,nt,nt,nt,nt,-6,3%,0.68,0.9
Cc1ccc(C2(C)NC(=O)N(CC(=O)Nc3c(C)n(C)n(-c4ccccc4)c3=O)C2=O)cc1 (stereo not drawn),nt,nt,nt,nt,nt,0,10%,0.69,-2.3
CCc1ccccc1NC(=O)c1noc(C(C)C)c1[N+](=O)[O-],9,2,-0.8,i,-0.6,1,nt,0.67,4.5
